High-throughput results as filed in PubChem BioAssay.
Arbovirus anti = antivirals against arbovirus infection, primary screen, cell-based, full library, 10K replicate subset. arbovirus infection cell-based antiviral screen. inhibition, % at 10 µM. 0.37% of 200,000 active. AID 1251, 2008;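 active = inhibition from about 30%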;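 note: bluetongue infection of BSR cells; cell survival read as ATP light after 72 h; 0% = infected wells without compound and 100% = uninfected wells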
Mtb betalactam = beta-lactam sensitization of Mtb H37Rv, H37Rv; inhibition, % at 25 µM; 0.27% of 330,000 active; M. tuberculosis H37Rv growth with meropenem, percent inhibition; hits of this screen are not shown here;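 active = about 74% or more and at least 40 points above the plate without the antibiotic, then above 30% in a dose series; inconclusive = first-round hits that could not be retested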;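 note: growth measured after seven days incubation then overnight dye step; 0% = bacteria only wells and 100% = bacteria with antibiotic; twin plates without the antibiotic show which effects depend on it; some results filed as inactive read as strong as hits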
RecA intein inh = Mtb RecA intein splicing inhibitors, primary screen, biochemical, fluorescence, HTS; Protein RecA (Mycobacterium tuberculosis (strain ATCC 25618 / H37Rv)), P9WHJ3; cell-free RecA intein splicing; inhibition, %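 (about 9 µM by stock and volumes)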; 0.75% of 290,000 active; in the data active = inhibition above about 30%; inconclusive = no clear call, values can overlap the other calls;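 note: 0% = vehicle wells and 100% = reference inhibitor control wells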
Target sequence (P9WHJ3 whole entry, looked up): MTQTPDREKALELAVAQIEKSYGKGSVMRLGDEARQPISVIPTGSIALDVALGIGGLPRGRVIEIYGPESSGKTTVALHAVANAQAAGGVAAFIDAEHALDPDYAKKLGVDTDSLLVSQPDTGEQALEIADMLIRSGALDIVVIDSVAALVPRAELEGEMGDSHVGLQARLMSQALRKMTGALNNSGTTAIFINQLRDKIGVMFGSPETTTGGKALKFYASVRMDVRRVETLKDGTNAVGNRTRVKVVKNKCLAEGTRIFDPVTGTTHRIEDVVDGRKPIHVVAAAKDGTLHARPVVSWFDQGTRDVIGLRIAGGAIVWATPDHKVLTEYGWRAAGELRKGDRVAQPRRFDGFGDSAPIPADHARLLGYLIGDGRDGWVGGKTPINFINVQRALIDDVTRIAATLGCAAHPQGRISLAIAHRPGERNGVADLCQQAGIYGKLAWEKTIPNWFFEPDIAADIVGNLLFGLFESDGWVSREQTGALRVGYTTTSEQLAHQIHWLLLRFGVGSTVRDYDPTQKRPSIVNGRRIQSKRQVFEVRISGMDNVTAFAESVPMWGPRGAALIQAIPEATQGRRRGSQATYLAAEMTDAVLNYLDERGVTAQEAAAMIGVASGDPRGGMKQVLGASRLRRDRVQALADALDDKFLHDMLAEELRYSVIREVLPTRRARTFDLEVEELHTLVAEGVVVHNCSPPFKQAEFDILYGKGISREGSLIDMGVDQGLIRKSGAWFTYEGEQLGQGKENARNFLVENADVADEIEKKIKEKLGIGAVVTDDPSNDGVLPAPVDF
YopH PTP inh = YopH tyrosine phosphatase inhibitors, primary screen, biochemical, fluorescence Ex485/Em525; AID 898, 2007; inhibition, %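 (about 10 µM by stock and volumes)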; 0.16% of 140,000 active;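 active = inhibition of 50% or more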;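 note: controls were vehicle for no effect and minimum signal wells for full effect; inactives centre near -20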
Mtb H37Rv = M. tuberculosis H37Rv growth inhibitors, H37Rv strain (AID 1626); M. tuberculosis H37Rv growth inhibition; higher % means a stronger effect; one-dose inhibition, % at 10 µM; IC50 in µM for titrated hits; 0.95% of 220,000 active;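 active = confirmed in a dose series; inconclusive = inhibition above 80% but not taken into the dose series; inactive = below 80% or under 30% at every dose of the series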;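 note: bacteria incubated seven days before Alamar blue readout; 0% = bacteria only wells and 100% = bacteria with antibiotic wells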
Arbovirus anti repeat = further read-out of Arbovirus anti, marked with its call; inhibition, %; measured here: 10K subset replicate screen; many hits read low in the repeat;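 first of two repeat runs on a subset; 0% = infected and 100% = uninfected wells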
Numbers without * were called inactive; ? = inconclusive; / = no result given; & = joins results of further samples. This is a subset. The share of hits here may be higher or lower than overall.

SMILES	Arbovirus anti	Mtb betalactam	RecA intein inh	YopH PTP inh	Mtb H37Rv	others
CCC(C)NC(=O)C(=O)NCc1ccccn1 (stereo not given)	3	2	-1.8	/	-13%
COC(c1ccccc1)c1nnc(CCC(=O)N(C)C(C2CC2)C2CC2)o1 (stereo not given)	-4	0	1.7	/	-1%
O=C(/C=C/c1ccc(S(=O)(=O)N2CCOCC2)cc1)NC(=S)Nc1ccc(N2CCOCC2)cc1	0	-1	-2.4	-33	-2%
Cc1cc(N2CCOCC2)n2nc(C)c(-c3ccccc3Cl)c2n1	/	6	-0.3	/	/
N#Cc1c(CSCC(=O)O)cc(=O)n2c1[nH]c1ccccc12	/	-8	-2.4	/	-14%
C=CCNc1nc(N)c(C(=O)Nc2cc(C)on2)s1	-4	-4	2.7	-33	-5%
CCCCN1C(=O)C(O)(CC(=O)c2ccccn2)c2ccccc21 (stereo not given)	-5	0	-1.4	/	-3%
Cc1cccc(NC(=O)c2cc3cc([N+](=O)[O-])ccc3s2)n1	-3	-6	2.1	/	7%
CC(=O)OC1N=C(c2ccccc2Cl)c2cc(Br)ccc2N(C)C1=O (stereo not given)	/	-3	1.2	/	0%
O=C(CNC(=O)c1ccc([N+](=O)[O-])cc1)c1ccccc1	-3	6	/	-24	-10%

Next part, overlapping the part above by four compounds.
SMILES	Arbovirus anti	Mtb betalactam	RecA intein inh	YopH PTP inh	Mtb H37Rv	others
CCCCN1C(=O)C(O)(CC(=O)c2ccccn2)c2ccccc21 (stereo not given)	-5	0	-1.4	/	-3%
Cc1cccc(NC(=O)c2cc3cc([N+](=O)[O-])ccc3s2)n1	-3	-6	2.1	/	7%
CC(=O)OC1N=C(c2ccccc2Cl)c2cc(Br)ccc2N(C)C1=O (stereo not given)	/	-3	1.2	/	0%
O=C(CNC(=O)c1ccc([N+](=O)[O-])cc1)c1ccccc1	-3	6	/	-24	-10%
CN(C)c1ccc(/C(=N\O)c2ccccc2)cc1	-1	-3	-1.8	-10	-3%
O=C(CSc1nc2ccccc2c(=O)[nH]1)c1ccc(O)cc1O	5	/	-3.5	/	5%
Cc1ccc(-c2nn3c(C)nnc3s2)cc1NC(=O)c1cccnc1	9	-6	1.1	33	3%
CN(C(=O)c1ccccc1Cl)c1ccccc1C(=O)NCCc1ccccc1	/	-3	-1.8	/	/
CCCCN1C(=O)c2ccc(C(=O)NCc3ccco3)cc2C1=O	/	-7	4.2	/	/
CCN(C(=O)CN1C(=O)S/C(=C\C=C\c2ccccc2)C1=O)C1CCS(=O)(=O)C1 (stereo not given)	/	6	18	/	/
CCCCNC(=S)NC(C)(C)CO	3	-5	-1.7	/	-8%
O=C(N/N=C/c1ccco1)c1ccc(C(=O)N/N=C/c2ccco2)o1	1	-6	-2.4	/	-8%
CC1=CC(C)(C)Nc2ccc(OC(=O)CN3C(=O)c4cccc5cccc(c45)C3=O)cc21	-19	3	-1.2	3	/
COc1ccccc1-c1cc(C(=O)Nc2cc(C)n(Cc3ccc(Cl)cc3)n2)no1	-12	-3	-4.0	-16	2%
CC(C)[C@H](NC(=O)c1ccccc1)C(=O)OCC(=O)c1ccc2c(c1)NC(=O)CO2	7	2	9.6	-1	-5%
CC(=O)N/C(=N/c1nc(C)cc(C)n1)Nc1cccc(C)c1	/	2	-0.4	/	/
COc1ccc(S(=O)(=O)NC2CCSc3ccccc32)cc1OC (stereo not given)	/	3	3.0	/	/
Fc1ccccc1CCNc1c2c(nc3ncnn13)CCCC2	3	5	2.5	/	0%
CNC(=O)/C(=N\O)c1ccccc1	-4	/	-3.5	-29	-4%
CN1CCN(NC(=O)c2cc([N+](=O)[O-])cc([N+](=O)[O-])c2)CC1	-11	-4	-0.8	-32	-2%
COc1cc(C2C(C#N)=C(N)Oc3cc(C)oc(=O)c32)cc(OC)c1OC (stereo not given)	/	-6	-3.0	/	-2%
COc1ccc(C(=O)NCCOc2cccc(OC)c2)cc1	-8	8	0.3	/	8%
COc1ccc(CC(=O)N2N=C(C)CC2(O)c2cccnc2)cc1OC (stereo not given)	-4	0	-4.0	-18	1%
Cc1cc([N+](=O)[O-])cc2c1NC(=O)C2(O)N1CCOCC1 (stereo not given)	-6	3	3.1	/	4%
CCOc1ccccc1CN1CCN(CCCc2ccccc2)CC1CCO (stereo not given)	/	-10	2.1	/	/
c1ccc(OCCCCN2CCCCC2)cc1	/	-1	0.3	/	/
C/C(CCC(C)C)=N\NC(=O)COc1ccccc1-c1ccccc1	-9	/	/	/	-5%
Cn1c(=O)oc2cc(S(=O)(=O)Nc3ccccc3)ccc21	-5	2	-1.4	/	-9%
CCc1cc2c(=O)c(-c3cscn3)coc2c(CN(C)C)c1O	38*	-1	-0.3	-30	-7%
C=CCN(c1ccc(C(=O)NCCCn2ccnc2)cc1)S(C)(=O)=O	/	-8	-3.1	/	/
Cc1cccc(-n2c(SC(C)C(=O)O)nc3sc4c(c3c2=O)CCCC4)c1 (stereo not given)	/	17	-1.7	/	/
CCCCOC(=O)Nc1nnc(COc2ccccc2)s1	-1	-6	2.4	-31	9%
Cc1ccc(C)c(NC(=S)NC(NC(=O)N(C)C)C(Cl)(Cl)Cl)c1 (stereo not given)	-2	6	0.0	-33	-9%
CCCN(CC(=O)Nc1ccccc1C)C(=O)C1CCN(c2ncnc3sc(C)c(C)c23)CC1	/	-19	-1.3	/	/
CS(=O)(=O)c1ccc(C(=O)NCCN2C(=O)S/C(=C\c3cccnc3)C2=O)cc1[N+](=O)[O-]	-42	26	26	/	1%
COc1ccc(-n2c(O)c(C=NCC(c3ccco3)N3CCCC3)c3ccccc3c2=O)cc1OC (stereo not given)	7	4	-6.2	/	-3%
COc1nccnc1NS(=O)(=O)c1ccc(N=Cc2c(C)[nH]n(-c3ccc(Cl)cc3)c2=O)cc1	5	24	-0.7	-35	7%
O=C(CCNS(=O)(=O)c1ccccc1C(F)(F)F)N1CCN(S(=O)(=O)c2cccc(F)c2)CC1	/	-3	13	/	/
CN1CCN(c2ccc(NC(=O)c3ccco3)cc2Cl)CC1	/	-1	-0.3	/	/
O=C1c2cccc(Cl)c2C(=O)c2c1cccc2N1CCCC1	/	52	3.8	0	13%
CCOC(=O)c1c(C)[n+](-c2ccc(C)cc2)c(CC)c2cc(OC)c(OC)cc12	/	-4	-2.3	/	/
COc1ccc(C(=O)N(C)C2CCN(C)CC2)cc1S(=O)(=O)Nc1cc(Cl)ccc1Cl	/	-1	-1.0	/	-15%
COc1ccc(N2C(=O)C3C4C=CC(C4)C3C2=O)nn1 (stereo not given)	1	-4	3.9	28	-10%
CCc1cc2c(=O)c(-c3nc4ccccc4n3C)c(C(C)C)oc2c(CN2CCN(C)CC2)c1O	27&15	-3	-2.1	-27	2%	Arbovirus anti repeat=0
CCCc1cc(C(=O)Nc2sc(C(C)=O)c(C)c2C(=O)OCC)no1	2	3	-0.1	-12	6%	Arbovirus anti repeat=0
O=C1CCCC(=O)N1c1ccc(N2CCN(c3ccc([N+](=O)[O-])cc3)CC2)c([N+](=O)[O-])c1	5	0	-7.2	-31	-7%
Nc1cc(C(F)(F)F)ccc1N1CCOCC1	2	-7	-2.4	/	4%
CN(C)c1ncnc2sc(-c3ccccc3)cc12	/	64	1.5	/	/
O=C(COc1ccccc1)Nc1nnc(-c2ccc(Cl)cc2)o1	/	-16	2.7	/	/
COc1cccc(OC)c1C(=O)Nc1ccc(S(=O)(=O)Nc2ncccn2)cc1	/	11	1.8	/	/
Clc1ccccc1CSc1nncn1-c1cccnc1	6	-1	1.4	/	-3%
COC(=O)CSc1ccc(S(=O)(=O)N2CCCCCC2)cc1[N+](=O)[O-]	3	-2	-2.7	/	-2%
Cn1cnc2cc(NCc3ccc(Cl)cc3)ccc21	/	-19	2.7	/	/
Cc1nn(-c2ccccc2)c(NC(=O)c2cccs2)c(-c2ccccc2Cl)c1=O	/	-1	-0.7	/	-9%

Following part.
SMILES	Arbovirus anti	Mtb betalactam	RecA intein inh	YopH PTP inh	Mtb H37Rv	others
CNc1ccc2nc3ccccc3[n+](C)c2c1	/	99	45*	/	/
C#CCOCCOCCOCCNc1nc(N2CCN(C(=O)[C@H]([C@@H](C)CC)n3cc([C@@H](N)CO)nn3)CC2)nc(N2CCN(C(=O)[C@H](Cc3ccc(O)cc3)n3cc([C@@H](N)CC(C)C)nn3)CC2)n1	5	-8	-0.6	/	-4%
CCOC(=O)N1CCN(C(=O)c2cc(OCC)c(OCC)c(OCC)c2)CC1	-4	-1	1.2	/	-4%
CNc1nc2c(C)cccn2c(=O)c1C=NCc1ccccc1	-7	?	-5.2	-1	/
CCc1sc(C(=O)N2CCc3ccccc32)cc1C	8	4	8.0	/	6%
Cc1cc(C(=O)NNC(=O)CCC2CCCCC2)c(C)o1	-2	-2	3.1	/	-4%
COc1ccccc1NC(=O)COC(=O)COc1cccc2c1OC(C)(C)C2	/	-8	0.4	/	/
CSCCC(NC(=O)c1ccccc1Cl)C(=O)N1CCN(C(c2ccccc2)c2ccccc2)CC1 (stereo not given)	/	-3	5.4	/	/
COCCN1Cc2cccc(C(=O)Nc3cccc(-c4nc5ccccc5[nH]4)c3)c2C1=O	/	-5	5.1	/	-2%
O=S(=O)(/N=C/c1c(O)ccc2ccccc12)c1cccs1	5	-1	-2.5	8	-8%

Sorted by molar mass (ascending): some entries from above.
SMILES	Arbovirus anti	Mtb betalactam	RecA intein inh	YopH PTP inh	Mtb H37Rv	others
CCc1cc2c(=O)c(-c3cscn3)coc2c(CN(C)C)c1O	38*	-1	-0.3	-30	-7%
C/C(CCC(C)C)=N\NC(=O)COc1ccccc1-c1ccccc1	-9	/	/	/	-5%
COc1nccnc1NS(=O)(=O)c1ccc(N=Cc2c(C)[nH]n(-c3ccc(Cl)cc3)c2=O)cc1	5	24	-0.7	-35	7%

The results go on.
SMILES	Arbovirus anti	Mtb betalactam	RecA intein inh	YopH PTP inh	Mtb H37Rv	others
Nc1[nH]nc2ncc3cc4ccccc4nc3c12	1	83	0.5	/	33%
CN(C1=C(N2CCOCC2)C(=O)c2ccccc2C1=O)c1ccccc1	-10	8	11	-8	8%
CC(C)C(=O)N1CCC(n2nccc2NC(=O)CCc2ccccc2)CC1	/	-3	0.0	/	/
Cc1ccc2c(c1)N(CC(=O)N1CCCCC1C)C(=O)CO2 (stereo not given)	/	5	-6.2	/	/
O=C1CCC(=O)N1c1ccc(NCCc2cccc(F)c2)c([N+](=O)[O-])c1	2	-1	-1.9	/	5%
O=C(Cn1c(=S)[nH]c2ccccc2c1=O)N1CCC2(CC1)OCCO2	0	1	/	-16	0%
COc1ccc(CC(=O)OCC(=O)Nc2ccc3c(c2)OCO3)cc1OC	-2	1	0.1	/	2%
COc1ccccc1C(=O)NNC1=NS(=O)(=O)c2ccccc21	/	-1	-2.1	/	/
O=C1N(c2ccc(Cl)cc2)C(c2ccccc2)N2CCCN12 (stereo not given)	-6	-1	-1.1	-14	0%
COC(=O)c1cc(-c2ccc(OC)cc2)n[nH]1	-1	-4	-0.5	/	-2%
O=C(C(Cl)Cl)N1CCN(c2ccccn2)CC1	7	-5	-0.9	10	5%
Cn1c(=O)c(C(=O)NCCc2ccccc2)c(O)c2ccccc21	/	0	0.9	/	/
CCC(C)[C@H](NC(=O)NCc1ccc(F)cc1)C(=O)O (stereo not given in full)	/	-1	-2.9	/	-7%
NC(=O)C1(C(N)=O)OC1c1ccccc1 (stereo not given)	/	5	-0.3	/	-9%
O=C(O)c1ccc(OCc2ccc(C(=O)O)o2)cc1	/	-8	-0.2	/	/
COc1cccc(N2CC(C(=O)Nc3c(C)cccc3C)CC2=O)c1 (stereo not given)	1	-8	-1.7	-32	-7%
CCCCOC(=O)Nc1cc(C(=O)OC)ccc1C(=O)OC	3	32	3.9	-26	-4%
Cc1ccc(-c2nnn(CC(=O)N3CCN(c4nc5ccccc5s4)CC3)n2)cc1	-9	3	-3.0	-38	4%
O=[N+]([O-])c1cccc(N/N=C/c2cccc(O)c2O)c1	-23	96	-6.1	/	?
c1ccc(-c2ccccc2-n2cnnn2)cc1	6	-20	2.9	-21	-6%	Arbovirus anti repeat=1
O=C(N/N=C\C1C(=O)NC(=S)N(c2ccccc2)C1=O)c1ccc(O)cc1 (stereo not given)	7	-1	/	/	-6%
Nc1c(C(=O)c2ccccc2)oc2ccc([N+](=O)[O-])cc12	/	-2	0.9	/	5%
CCN(Cc1ccccc1)C(=O)c1cccc(S(=O)(=O)N2CCN(c3ccccc3)CC2)c1	/	-7	2.9	/	/
CC(C(=O)NC(N)=O)N1C(=O)NC(c2ccccc2)(c2ccccc2)C1=O (stereo not given)	/	2	0.1	/	/
Cc1ccc(S(=O)(=O)NCc2ccccc2)cc1	/	1	-4.4	/	/
O=C(Cn1c2[n+](c3ccccc31)CC(O)CS2)c1ccccc1 (stereo not given)	9	-5	-2.9	/	-7%
